FGF22 binding: shifts melting point of recombinant human FGF22; 340,000 tested, 1.5% active; calls only at 9.99 µM; recombinant FGF22 thermal shift, SYPRO orange fluorescence; percent of sucrose octasulfate shift, DMSO zero;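 active = melting point raised past a set limit in the mean and every replicate; three in four hits are not shown here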
Target sequence (Q9HCT0 whole entry, looked up): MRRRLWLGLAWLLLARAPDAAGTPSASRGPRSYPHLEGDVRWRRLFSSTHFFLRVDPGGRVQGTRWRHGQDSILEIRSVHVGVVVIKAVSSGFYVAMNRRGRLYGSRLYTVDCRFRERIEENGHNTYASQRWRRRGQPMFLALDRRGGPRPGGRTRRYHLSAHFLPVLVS
MLL AF4-AF9 inh: MLL-AF4/AF9 protein interaction inhibition | AlphaScreen, biotin-AF4 peptide binding to FLAG-AF9 | inhibition, % at 10 µM | AID 651704 | 350,000 tested, 0.47% active;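 active = every replicate reaching a set inhibition limit, whatever the replicate mean, cut at about 25% in these data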;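 also: 0% = plate neutral control median and 100% = total signal loss; the record names both 10 and 1 µM as test concentration; the first replicate is given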
Target sequence (P42568 whole entry, looked up): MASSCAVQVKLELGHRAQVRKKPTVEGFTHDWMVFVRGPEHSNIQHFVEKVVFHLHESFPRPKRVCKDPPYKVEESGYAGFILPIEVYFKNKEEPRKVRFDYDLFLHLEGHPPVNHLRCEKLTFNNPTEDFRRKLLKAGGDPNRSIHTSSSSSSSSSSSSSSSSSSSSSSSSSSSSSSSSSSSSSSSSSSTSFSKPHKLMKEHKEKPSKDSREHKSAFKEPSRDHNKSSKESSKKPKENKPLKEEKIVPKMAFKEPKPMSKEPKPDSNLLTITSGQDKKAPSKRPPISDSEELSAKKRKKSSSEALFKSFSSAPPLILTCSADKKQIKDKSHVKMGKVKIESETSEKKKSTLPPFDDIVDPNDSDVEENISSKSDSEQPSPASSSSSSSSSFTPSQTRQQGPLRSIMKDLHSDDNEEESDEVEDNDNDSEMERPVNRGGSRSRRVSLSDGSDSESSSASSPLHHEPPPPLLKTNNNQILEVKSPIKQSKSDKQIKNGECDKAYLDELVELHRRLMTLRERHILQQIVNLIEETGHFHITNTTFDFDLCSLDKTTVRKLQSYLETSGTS
Numbers without * were called inactive; i = inactive.

compound	FGF22 binding	MLL AF4-AF9 inh
O=C(C[C@@H]1C[C@H]2c3cc(NC(=O)c4cccnc4)ccc3O[C@H]2[C@H](CO)O1)NCc1cc(F)ccc1F	i	2.8
C[C@H](CO)N1C[C@H](C)[C@H](CN(C)Cc2ccncc2)Oc2ccc(NC(=O)CCCCCC(=O)Nc3ccccc3N)cc2C1=O	i	-1.7
C[C@@H]1CN([C@@H](C)CO)C(=O)c2cc(NS(=O)(=O)c3cccs3)ccc2O[C@@H]1CN(C)Cc1ccc(Cl)c(Cl)c1	i	-11.9
C[C@@H]1CN([C@H](C)CO)C(=O)c2cc(C#CCN(C)C)cnc2O[C@@H]1CN(C)C(=O)Nc1cccc(F)c1	i	1.8
CC=Cc1ccc2n(c1=O)C[C@@H]1[C@@H](CO)[C@H](C(=O)NCCc3cn(C)cn3)N(C(=O)C3CCC3)[C@H]21 (mixture of isomers)	i	0.8
C/C=C/c1ccc2c(c1)O[C@@H](CN(C)C(=O)Cc1ccccc1)[C@@H](C)CN([C@H](C)CO)S2(=O)=O	i	3.9
COCC(=O)Nc1ccc2c(c1)OC[C@@H](C)N(C)C[C@H](C)[C@H](OC)CN(C)C2=O	i	-1.6
CCS(=O)(=O)NCC[C@@H]1CC[C@@H](NC(=O)C2CCCC2)[C@H](CO)O1	i	-1.3
C[C@@H]1CN([C@H](C)CO)C(=O)c2cccc(NC(=O)Nc3cccc4ccccc34)c2O[C@@H]1CN(C)CC1CCCCC1	i	12.0
O=C(C[C@@H]1CC[C@H](NC(=O)Cc2cccnc2)[C@@H](CO)O1)NCc1ccc2c(c1)OCO2	i	-12.9
C[C@H](CO)N1C[C@H](C)[C@H](CN(C)C(=O)C2CCOCC2)Oc2ncc(C3=CCCCC3)cc2C1=O	i	-1.9
CC(C)NC(=O)N(C)C[C@H]1OCCCC[C@H](C)Oc2ccc(NS(=O)(=O)c3cn(C)cn3)cc2C(=O)N([C@H](C)CO)C[C@@H]1C	i	3.9
O=C(Cc1ccccc1)N[C@H]1C=C[C@@H](CC(=O)N2CCCCC2)O[C@@H]1CO	i	-16.0
Cc1noc(C)c1NC(=O)N(C)C[C@H]1Oc2c(NC(=O)NC(C)C)cccc2C(=O)N([C@@H](C)CO)C[C@@H]1C	i	-1.1
C[C@@H]1CN([C@H](C)CO)C(=O)c2cc(-c3ccc(F)cc3)cnc2O[C@H]1CN(C)C(=O)Nc1ccccc1F	i	-2.5
CCNC(=O)[C@@H]1[C@@H](CO)[C@@H]2Cn3c(ccc(-c4ccc(F)cc4)c3=O)[C@@H]2N1C(=O)Cc1cccnc1	i	-1.1
C[C@@H]1CN([C@@H](C)CO)C(=O)c2cc(C3=CCCCC3)cnc2O[C@H]1CN(C)Cc1cccc(F)c1	i	16.9
CO[C@H]1CN(C)C(=O)c2cc(NS(C)(=O)=O)ccc2OC[C@H](C)N(C(=O)CN(C)C)C[C@@H]1C	i	-1.5
COc1ccccc1NC(=O)N1C[C@@H]2[C@H](c3ccccc31)[C@@H](CO)N2C(C)=O	i	3.1
C[C@@H]1CN([C@H](C)CO)C(=O)c2c(c3ccccc3n2C)-c2ccccc2CO[C@H]1CN(C)Cc1cccc(C(F)(F)F)c1	i	-7.0
CNC(=O)C1=C[C@H](c2ccc(C(=O)OC)cc2)C[C@H](OCc2ccc(CO)cc2)O1	i	-3.2
C[C@@H]1CN([C@H](C)CO)C(=O)c2cc(NC(=O)Nc3ccc(C(F)(F)F)cc3)ccc2O[C@@H]1CN(C)S(=O)(=O)c1ccc(F)cc1	i	1.4
O=C(NCC(F)(F)F)[C@H]1[C@H](CO)[C@H]2Cn3c(cccc3=O)[C@@H]1N2CC1CC1	i	-1.0
O=C(C[C@H]1C[C@@H]2c3cc(NC(=O)c4ccc5c(c4)OCO5)ccc3O[C@@H]2[C@H](CO)O1)NCCc1ccccc1	i	-13.6
Cc1ccc(S(=O)(=O)N[C@@H]2C=C[C@H](CC(=O)NC3CCCCC3)O[C@@H]2CO)cc1	i	0.0

Next section, starting with the last 4 of the part before.
compound	FGF22 binding	MLL AF4-AF9 inh
C[C@@H]1CN([C@H](C)CO)C(=O)c2cc(NC(=O)Nc3ccc(C(F)(F)F)cc3)ccc2O[C@@H]1CN(C)S(=O)(=O)c1ccc(F)cc1	i	1.4
O=C(NCC(F)(F)F)[C@H]1[C@H](CO)[C@H]2Cn3c(cccc3=O)[C@@H]1N2CC1CC1	i	-1.0
O=C(C[C@H]1C[C@@H]2c3cc(NC(=O)c4ccc5c(c4)OCO5)ccc3O[C@@H]2[C@H](CO)O1)NCCc1ccccc1	i	-13.6
Cc1ccc(S(=O)(=O)N[C@@H]2C=C[C@H](CC(=O)NC3CCCCC3)O[C@@H]2CO)cc1	i	0.0
C[C@H]1CN([C@@H](C)CO)C(=O)Cc2cc(NC(=O)C3CC3)ccc2O[C@@H]1CN(C)C(=O)Nc1ccc(C(F)(F)F)cc1	i	-2.4
C[C@@H]1CN([C@@H](C)CO)C(=O)c2cc(NC(=O)NC3CCCCC3)ccc2O[C@@H]1CN(C)C(=O)Nc1ccccc1	i	-5.2
C[C@@H]1CN([C@H](C)CO)C(=O)Cc2cc(NC(=O)Nc3ccc(F)cc3)ccc2O[C@H]1CN(C)Cc1ccc(C(=O)Nc2ccccc2N)cc1	i	0.3
COC(=O)C[C@@H]1CC[C@@H]2[C@H](COc3ccc(NS(=O)(=O)c4ccccc4Cl)cc3C(=O)N2C)O1	i	-3.8
COc1ccc2c3c(n(C)c2c1)[C@H](CO)N(C(=O)Nc1ccc(F)cc1)CC31CCN(S(=O)(=O)c2cccs2)CC1	i	-0.5
CCS(=O)(=O)Nc1ccc2c(c1)C(=O)N(C)[C@@H]1CC[C@@H](CC(=O)NCc3ccc(OC)cc3)O[C@@H]1CO2	i	-1.9
C[C@H]1CN([C@@H](C)CO)C(=O)c2cc(NC(=O)CCCCCC(=O)Nc3ccccc3N)ccc2O[C@H]1CN(C)Cc1ccncc1	i	-2.6
CCCC#Cc1ccc([C@@H]2[C@@H](CO)N3CCCCN(CCC)C[C@@H]23)cc1	i	-2.8
C[C@H]1CCCCO[C@H](CN(C)S(=O)(=O)c2ccc(Cl)cc2)[C@@H](C)CN([C@@H](C)CO)C(=O)c2cc(NC(=O)c3ccccc3)ccc2O1	i	-0.4
Cc1ccc(S(=O)(=O)N(C)C[C@H]2OCCCC[C@H](C)Oc3ccc(NS(C)(=O)=O)cc3C(=O)N([C@@H](C)CO)C[C@H]2C)cc1	i	0.7
COCC(=O)N1CCC2(CC1)CN(C(=O)Nc1ccccc1F)[C@@H](CO)c1[nH]c3cc(OC)ccc3c12	i	4.6
COc1ccc2c3c([nH]c2c1)[C@H](CO)N(Cc1ccccc1)CC31CCN(CC2CC2)CC1	i	26.1*
CC(C)NC(=O)N(C)C[C@H]1Oc2ccc(NC(=O)C3CCCCC3)cc2CC(=O)N([C@H](C)CO)C[C@H]1C	i	-1.8
COCC(=O)N1[C@@H]2c3ccc(-c4ccccc4)c(=O)n3C[C@H]1[C@H](CO)[C@H]2C(=O)NCc1ccccn1	i	0.4
COc1ccc2c3c([nH]c2c1)[C@H](CO)N(C(=O)c1cccnc1)CC31CN(Cc2ccccc2)C1	i	0.4
COc1ccc(NC(=O)N(C)C[C@H]2OCCCC[C@H](C)Oc3ccc(NS(C)(=O)=O)cc3C(=O)N([C@@H](C)CO)C[C@H]2C)cc1	i	-4.0
COc1ccccc1CNC(=O)C[C@@H]1CC[C@@H]2[C@H](COC[C@H](O)CN2C(=O)Nc2ccc(Cl)cc2)O1	i	0.2
COc1ccc(NC(=O)N2CCCCN3[C@@H](CO)[C@@H](c4ccc(-c5ccccc5C)cc4)[C@@H]3C2)cc1	i	16.1
C[C@H](CO)N1C[C@H](C)[C@H](CN(C)S(=O)(=O)c2ccc(Cl)cc2)Oc2c(NC(=O)C3CCOCC3)cccc2C1=O	i	-3.0
C[C@@H]1CN([C@@H](C)CO)C(=O)Cc2cc(NC(=O)NC3CCCCC3)ccc2O[C@@H]1CN(C)Cc1ccc(C(=O)O)cc1	i	-3.4
CCCNC(=O)N(C)C[C@@H]1Oc2ncc(-c3ccc(F)cc3)cc2C(=O)N([C@H](C)CO)C[C@@H]1C	i	-2.4
CCN1[C@@H]2c3ccc(/C=C/c4ccccc4)c(=O)n3C[C@H]1[C@H](CO)[C@H]2C(=O)NC1Cc2ccccc2C1	i	-35.1
COc1ccccc1-c1cn(CC[C@H]2CC[C@H](NC(=O)NC(C)C)[C@@H](CO)O2)nn1	i	-1.3
CN1CCN(C(=O)C[C@H]2CC[C@H]3[C@@H](COC[C@@H](O)CN3C(=O)Nc3ccc(F)cc3)O2)CC1	i	-3.6
CO[C@H]1CN(C)C(=O)c2cc(NS(=O)(=O)c3ccc(-c4ccccc4)cc3)ccc2OC[C@H](C)NC[C@H]1C	i	3.8

The listing continues:
compound	FGF22 binding	MLL AF4-AF9 inh
CC(C)NC(=O)Nc1ccc2c(c1)CC(=O)N([C@H](C)CO)C[C@H](C)[C@H](CN(C)Cc1ccccc1)O2	i	0.8
C/C=C/c1ccc([C@@H]2[C@H](CO)N(CCC(F)(F)F)C23CN(C(=O)CC2CC2)C3)cc1	i	3.6
C[C@@H]1CN([C@H](C)CO)C(=O)Cc2cc(NC(=O)c3ccncc3)ccc2O[C@H]1CN(C)S(=O)(=O)c1cn(C)cn1	i	-2.3
C[C@@H]1CN([C@H](C)CO)C(=O)c2cccc(NC(=O)c3cnccn3)c2O[C@@H]1CN(C)S(=O)(=O)c1cn(C)cn1	i	-2.6
COc1ccc(NC(=O)Nc2ccc3c(c2)C(=O)N([C@@H](C)CO)C[C@H](C)[C@@H](CN(C)C(=O)Nc2cccc4ccccc24)O3)cc1	i	1.6
O=C(Nc1ccc(F)cc1)N1C[C@H]2[C@@H](c3ccccc31)[C@@H](CO)N2C(=O)c1cccnc1	i	-0.9
C[C@@H]1CN([C@H](C)CO)C(=O)c2cccc(NC(=O)NC3CCCCC3)c2O[C@H]1CN(C)Cc1ccccc1	i	-1.4
Cn1cnc(S(=O)(=O)N2CCCCN3[C@H](C2)[C@@H](c2ccc(C#CC4CCCC4)cc2)[C@@H]3CO)c1	i	2.6
CNC[C@@H]1OCCCC[C@H](C)Oc2ccc(NS(=O)(=O)c3cccs3)cc2C(=O)N([C@@H](C)CO)C[C@@H]1C	i	-6.1
C[C@@H]1CN([C@H](C)CO)C(=O)c2ccccc2-c2ccccc2CO[C@@H]1CN(C)C(=O)Nc1cccc(F)c1	i	-4.1
C[C@@H]1CN([C@@H](C)CO)C(=O)c2cc(/C=C/c3ccccc3)cnc2O[C@@H]1CN(C)C(=O)c1ccc(F)cc1	i	9.4
C[C@H]1CN([C@@H](C)CO)C(=O)c2cc(NS(=O)(=O)c3ccc(F)cc3)ccc2O[C@H]1CN(C)C(=O)Nc1ccc2c(c1)OCO2	i	0.4
COCC(=O)N1CCCCN2[C@H](CO)[C@@H](c3ccc(-c4ccc(C)cc4)cc3)[C@H]2C1	i	-0.1
CCc1sc(N2[C@@H](C#N)[C@@H](c3ccccc3-c3cccc(C)c3)[C@@H]2CO)nc1C	i	-2.5
COCC(=O)Nc1ccc2c(c1)C(=O)N(C)C[C@H](OC)[C@H](C)CN(Cc1cncnc1)[C@H](C)CO2	i	-1.0
CCCNC(=O)C[C@@H]1CC[C@@H]2[C@H](COC[C@H](O)CN2C(=O)CC)O1	i	-3.7
COc1ccc(S(=O)(=O)Nc2ccc3c(c2)C(=O)N([C@H](C)CO)C[C@H](C)[C@H](CN(C)C(=O)Nc2ccc(F)cc2)O3)cc1	i	-0.2
C[C@@H]1CCCCO[C@H](CN(C)C(=O)NC2CCCCC2)[C@H](C)CN([C@@H](C)CO)C(=O)c2cc(NC(=O)Nc3ccc(C(F)(F)F)cc3)ccc2O1	i	-2.5
CNC[C@@H]1Oc2c(NS(=O)(=O)c3c(C)noc3C)cccc2C(=O)N([C@H](C)CO)C[C@@H]1C	i	-17.6
C[C@H](NC(=O)C[C@@H]1C=C[C@@H](NC(=O)C2CCC2)[C@@H](CO)O1)c1ccccc1	i	3.2
COCCNC(=O)C[C@@H]1CC[C@@H](NC(=O)NC2CCCC2)[C@@H](CO)O1	i	-0.2
COc1ccc(S(=O)(=O)N(C)C[C@@H]2Oc3c(NC(=O)Nc4ccc5c(c4)OCO5)cccc3C(=O)N([C@H](C)CO)C[C@H]2C)cc1	i	2.8
Cc1ccc(-c2ccc3c(c2)O[C@H](CN(C)S(C)(=O)=O)[C@@H](C)CN([C@@H](C)CO)S3(=O)=O)cc1	i	0.9
O=C(C[C@@H]1CC[C@H]2[C@@H](COC[C@H](O)CN2Cc2ccc(F)cc2)O1)NCc1ccccc1Cl	i	3.2
C[C@@H]1CN([C@@H](C)CO)C(=O)c2cc(-c3cccc(F)c3)cnc2O[C@H]1CN(C)Cc1ccccn1	i	-2.2
COC(=O)[C@@]1(CCC(=O)OC(C)(C)C)N=C(c2ccc(OCCCO)cc2)O[C@H]1c1ccccc1CN=[N+]=[N-]	i	7.4
O=C(CC(F)(F)F)N1C[C@@H]2[C@H](c3ccccc31)[C@@H](CO)N2Cc1cccnc1	i	-2.7

Structures listed above shown as hits in MLL AF4-AF9 inh.
compound	FGF22 binding	MLL AF4-AF9 inh
COc1ccc2c3c([nH]c2c1)[C@H](CO)N(Cc1ccccc1)CC31CCN(CC2CC2)CC1	i	26.1*

Whole records, quoted from the list. Order of screens: FGF22 binding | MLL AF4-AF9 inh
O=C(CC(F)(F)F)N1C[C@@H]2[C@H](c3ccccc31)[C@@H](CO)N2Cc1cccnc1 reads i | -2.7
C[C@@H]1CN([C@@H](C)CO)C(=O)c2cc(/C=C/c3ccccc3)cnc2O[C@@H]1CN(C)C(=O)c1ccc(F)cc1 reads i | 9.4

Source: PubChem BioAssay (Broad Institute)

This is a subset. The share of hits here may be higher or lower than overall.
